# Screens (PubChem BioAssay)
# Bead autofluor: compound fluorescence in toxin protease inhibitor counterscreen | compound autofluorescence counterscreen, microsphere flow cytometry; stronger effect = higher value | fluorescence intensity (concentration not given with the values) | AID 624483 | 360,000 tested, 3.1% active;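 active = at least 3 SD above the mean of all compounds, about 16000 in these data; inconclusive = too few beads counted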;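 also: 100 nL of 1 mM stock went into each well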
# BJeLR lethal: kills HRASV12-expressing BJeLR cells; BJeLR (HRASV12) viability, CellTiter-Glo ATP luminescence, 48 h; reference of the scale not given here; inhibition, % (test concentration not listed); 300,000 tested, 0.17% active; AID 1554;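 active = replicate mean above 50%; inconclusive = above 50% but judged a plate artefact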;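 also: 50 nL library stock added to about 25 µL; numbers are from one replicate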
# Mtb hypoxia rep: Mtb hypoxia fluorescent reporter inhibition. M. tuberculosis hypoxia-regulated fluorescent reporter, fluorescence. fluorescence inhibition, % (concentration not given with the values). 300,000 tested, 0.1% active. AID 1159583;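 active = 35 to 45% if threefold the growth effect, above 45% if 1.5-fold the growth effect; inactive = the rest, general growth blockers included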;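 also: wells of about 50 µL received 100 nL stock; 0% = vehicle wells and 100% = reference inhibitor wells; whole bacteria with a GFP reporter of the hypoxia response; strong numbers were not always called active; many hits fall short of the cut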
# Sa ugtP lethal: kills S. aureus RN4220 lacking UgtP; S. aureus RN4220 ugtP deletion, OD600 growth, 16 h; some inactives read as strong as hits; growth inhibition, % (test concentration not listed); 330,000 tested, 0.54% active; AID 1259309;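 active = z-score under -3 and OD600 up to 0.15 on both plates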;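 also: plate controls were untreated wells for no effect and antibiotic for full effect; wells of about 80 µL received 100 nL stock; the first replicate is given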
# RN4220 kill: kills Staphylococcus aureus RN4220; S. aureus RN4220 growth, OD600, 16 h; inhibition, % (concentration not given with the values); 330,000 tested, 0.33% active; AID 1259311;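 active = z-score of -3 or lower and OD600 up to 0.18 on both plates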;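 also: plate controls were untreated cells for no effect and reference antibiotic for full effect; stock transfer was 100 nL into about 80 µL; one replicate is shown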
# PrP UTR inh: suppresses PrP 5' UTR mRNA reporter expression | cell-based PrP 5' UTR mRNA reporter, plate reader | inhibition, % (test concentration not listed) | 340,000 tested, 0.35% active;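 active = every replicate at 50% or more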;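 also: 0 = median of the neutral control wells; tested in H4 reporter cells; numbers are from one replicate; inactives centre near -14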
# Mtb hypoxia rep growth: second read-out of Mtb hypoxia rep, no call of its own (marks repeat the call); growth inhibition, %; measured here: M. tuberculosis growth (absorbance);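 0% = vehicle and 100% = reference antibiotic; read after six days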
# The depositor's hits bear a star; ? = inconclusive; / = not tested or not shown. Rows were taken by chance, and some 3.9% of all compounds hit somewhere here.
SMILES | Bead autofluor | BJeLR lethal | Mtb hypoxia rep | Mtb hypoxia rep growth | Sa ugtP lethal | RN4220 kill | PrP UTR inh
CCOc1ccc(N(CC(=O)NC2CCCC2)C(=O)c2ccc(C)s2)cc1 | 3477 | 3.1 | -6.1 | -3.7 | 1.6 | 2.7 | -11.3
COc1c(O)cnn(-c2ccccc2)c1=O | / | -6.5 | 7.1 | 10.2 | 6.1 | 4.6 | -3.7
CCC(C)C1CN(C(C)CN2CCCC2CN2C(N)=NCC2Cc2ccccc2)C(=N)N1CCc1ccc(Cl)c(Cl)c1 (stereo unspecified) | / | / | / | / | 97.6* | 99.9* | /
COc1ccc(OC)c(CCNC(=O)CCc2nnc3ccc(N4CCCCC4)nn23)c1 | 5463 | -5.8 | -4.8 | -2.7 | 4.3 | 1.2 | -0.8
O=C(Cn1cncn1)NN=Cc1cccc(Cl)c1 | / | / | -21.6 | -8.8 | 0.7 | -0.8 | /
O=C(O)C1CCC(=O)N(C2CCCCC2)C1c1ccccc1Cl (stereo unspecified) | / | -2.0 | 0.1 | -0.7 | 10.3 | 6.5 | -10.1
COc1ccc(CC2(CO)CCN(Cc3cccc(OC)c3OC)CC2)cc1 | 4321 | -5.7 | -11.9 | -14.7 | 2.9 | 3.3 | -15.3
O=[N+]([O-])c1cccc(C=Nn2cnnc2)c1O | / | / | 16.3 | 9.1 | 14.2 | 5.3 | /
CCn1c(CC(=O)Nc2ccccc2C)nnc1SCC(=O)Nc1nncs1 | 4547 | -2.8 | -2.0 | -6.3 | 3.3 | 3.1 | -16.5
Cc1cc2nc(SCCN3CCCC3)[nH]c2cc1C | 8923 | 10.1 | 16.8 | 3.8 | 5.1 | 3.9 | -20.0
Cc1occc1C(=O)Nc1cccc(C(F)(F)F)c1 | 4040 | -7.6 | 10.1 | 2.7 | -6.8 | 0.8 | -17.5
CCOC(=O)C(O)C1CCc2c([nH]c3ccc(C)cc23)C1=O (stereo unspecified) | 4322 | -2.5 | 0.2 | -10.4 | 0.1 | -2.0 | -22.7
O=c1cc(-c2ccccc2)nc2nc(SCc3ccccc3)[nH]n12 | 6703 | -3.8 | 3.4 | 0.2 | 10.0 | 20.9 | -19.7
CN(C)S(=O)(=O)c1ccc(N2CCCC2)c(C(=O)NCC2COc3ccccc3O2)c1 (stereo unspecified) | / | -1.1 | 0.6 | 10.8 | 1.9 | 1.2 | 3.7
O=C(c1ccc2snnc2c1)N1CCN(c2ccccc2)CC1 | 7523 | -0.8 | 5.0 | 2.7 | 2.6 | -1.9 | 19.4
COC(=O)Nc1ncc(CN2CCCCC2)s1 | 7822 | -8.9 | 8.7 | 8.6 | 8.7 | 3.7 | /
O=C1NCCN1C(=O)C12CC3CC(CC(C3)C1)C2 | 2369 | -4.9 | / | / | 2.1 | 0.5 | -34.3
O=[N+]([O-])c1cc(Cl)cc(C=NNC(=S)Nc2ccc(S(=O)(=O)N3CCOCC3)cc2)c1O | / | / | 19.6 | 11.3 | -15.1 | 21.2 | /
O=C(N/C(=C/c1ccccc1Cl)C(=O)N1CCCC1)c1ccccc1 | 3369 | -1.2 | 15.9 | -3.4 | 3.8 | 0.9 | 6.1
c1ccc(-c2nc(C3CCCCC3)c3sccc3n2)cc1 | 4264 | 4.1 | 14.4 | -2.0 | 22.6 | -4.1 | -35.0
O=C1CC(N2CCOCC2)C(=O)N1c1ccccc1Cl (stereo unspecified) | 9180 | 1.2 | -2.5 | -14.4 | -0.2 | 0.4 | -15.4
Cc1ccc(S(=O)(=O)N2C(c3ccc(Cl)cc3)CC=C(C(=O)O)C2c2cccc(Cl)c2)cc1 (stereo unspecified) | / | / | 8.2 | 5.8 | 68.0 | 29.0 | /
CCOC(=O)c1c(C)[nH]c(C)c1C(=O)COC(=O)/C=C/c1cccc(C(F)(F)F)c1 | 9197 | 6.1 | 8.5 | 6.5 | -10.9 | 1.4 | -9.5
CCOC(=O)NN1C(=O)c2ccccc2NC1(C)C | 3142 | -0.6 | -0.3 | 2.4 | 7.8 | 3.3 | -15.0
CSC1=NCCN1S(=O)(=O)c1ccc(C)cc1 | 2362 | 0.4 | 7.2 | 6.2 | 7.6 | 0.0 | -18.6
Cc1nn(C)c2c(=O)c(=O)c2n(C)[nH]1 | 5917 | -6.5 | 16.5 | -1.2 | 13.2 | 2.8 | -15.9
CCc1nn2c(=O)cc(COc3cccc(NC(=O)c4ccco4)c3)nc2s1 | 4256 | -2.0 | 1.1 | -7.4 | 4.8 | 2.2 | -5.8
CCc1nonc1NC(=O)c1oc2cc(C)c(Cl)cc2c1C | 6646 | 2.8 | 1.9 | 10.8 | -0.4 | 3.8 | -5.5
CC(=O)Nc1ccc(Oc2nc(-c3cccnc3)nc3sc4c(c23)CCCC4)cc1 | 4028 | 8.7 | 1.3 | 12.6 | -0.2 | 2.3 | -48.2
O=C(NC1CCCCC1)c1cccc2c1C(=O)c1ccc(N3CCC(Cc4ccccc4)CC3)cc1S2(=O)=O | 5311 | / | 7.5 | 13.3 | 4.6 | 6.3 | -7.2
Cc1ccc2cc(C=NNC(=O)CN3CCCCC3)c(Cl)nc2c1 | / | / | 8.0 | 17.0 | -1.3 | 3.5 | /
CCOC(=O)C1=C(C)NC(SC)=NC1c1ccc(OC)cc1 (stereo unspecified) | 3011 | 0.2 | / | / | 4.8 | 0.2 | -11.6
O=C1NC(c2cccc([N+](=O)[O-])c2)=CCN1c1ccccc1O | 4140 | -7.7 | 8.5 | 2.1 | 6.0 | 10.7 | -5.1
CCCC1CC(C)(C(=O)CSc2n[nH]c(-c3ccccc3)n2)OC1=O (stereo unspecified) | 8640 | 3.5 | 2.0 | -3.9 | 1.3 | 3.1 | -26.7
CCC(=O)N=c1sc2c(OC)ccc(OC)c2n1C | 6144 | -4.6 | 6.2 | 4.3 | 4.1 | -7.4 | 0.5
Cc1cccc(N2CC(C(=O)Nc3ccc(N4CCOCC4)cc3)CC2=O)c1C (stereo unspecified) | 3502 | / | 3.0 | 1.1 | 8.4 | 2.3 | -2.5
Cn1c(O)c(N=NC(=S)Nc2ccccc2F)c2cc(S(=O)(=O)N3CCOCC3)ccc21 | 4354 | 18.6 | 8.9 | 8.1 | 14.3 | -6.6 | -6.1
COc1ccc(C=NCCCN2CCOCC2)cc1 | 3522 | -0.8 | / | / | -4.0 | -2.3 | -34.4
CC(NC(=O)c1ccccc1Cl)C1COc2ccccc2O1 (stereo unspecified) | 2979 | -5.5 | / | / | 8.3 | 16.5 | -29.3
Cc1ccc(Oc2nnc(-c3ccccc3)cc2C#N)cc1 | 2811 | 2.1 | / | / | 2.9 | 2.4 | -22.1
CCN(CC(=O)Nc1cccc(S(=O)(=O)N(C)c2ccccc2)c1)Cc1ccccc1 | 3840 | / | -0.8 | -0.3 | 0.9 | 4.2 | -27.0
COc1ccc(C2Nc3ccccc3C(=O)N2Cc2ccco2)cc1COc1ccccc1F (stereo unspecified) | 2798 | 1.3 | / | / | 0.0 | -3.8 | -22.7
COc1ccccc1C(=O)Nc1cccc2c1CCCC2 | 3355 | -2.1 | 7.4 | 0.8 | 7.2 | 10.7 | -34.5
O=C(CCCn1c(=O)[nH]c2cc(Cl)ccc2c1=O)N1CCN(c2ccc([N+](=O)[O-])cc2)CC1 | 8627 | / | 8.3 | 7.2 | -13.6 | 3.6 | -14.5
NC(=O)c1ccc(Oc2ccc3c(c2)CCC3)c([N+](=O)[O-])c1 | 5629 | -15.4 | / | / | / | / | 5.4
CN(c1ccc(C(=O)Nc2cccnc2)cc1)S(C)(=O)=O | 4602 | / | / | / | 5.5 | -2.0 | -22.9
Cc1cc(C)n(-c2nc3ccccc3nc2N2CCCC2)n1 | 19617* | -25.7 | 3.9 | 7.8 | 4.7 | 11.0 | -36.8
O=C1C(=O)N(CCCn2ccnc2)C(c2cccnc2)/C1=C(/O)c1ccc(F)cc1 (stereo unspecified) | 23173* | 1.0 | 7.6 | 0.6 | 2.6 | 2.1 | -14.5
O=C(NCCOc1nc(N2CCOCC2)nc(N2CCOCC2)n1)Nc1ccccc1 | 3500 | 9.0 | 2.3 | 0.8 | 9.0 | 2.3 | -12.2
CC(=O)c1cccc(NC(=O)c2cc(-c3ccco3)nc3ccccc23)c1 | 3774 | 3.8 | 9.5 | 10.1 | 4.9 | 0.1 | -14.5

# (continued)
SMILES | Bead autofluor | BJeLR lethal | Mtb hypoxia rep | Mtb hypoxia rep growth | Sa ugtP lethal | RN4220 kill | PrP UTR inh
Cc1cccnc1NC(=S)NC(=O)/C=C/c1ccccc1 | 2649 | -13.2 | -5.1 | -8.9 | 6.2 | -1.0 | -67.3
CCC(C)(CC(=O)Nc1nccs1)c1ccccc1 (stereo unspecified) | 3594 | -16.4 | 9.3 | 4.1 | -7.2 | -0.7 | -4.9
COc1ccc(C2C(C#N)C(C#N)N3CCCN23)cc1 (stereo unspecified) | ? | -3.5 | 3.0 | 1.9 | -3.8 | -2.2 | -6.1
O=C1NC[C@H](c2ccccc2)N(CCc2cccc(F)c2)C1=O | 4033 | 2.0 | / | / | / | / | -11.9
CC(=O)Cc1ccc(OC(C)C)cc1 | 5550 | 13.5 | 5.8 | -6.4 | -2.9 | 2.1 | -25.7
Cc1ccc(C)c(Oc2coc3cc(O)ccc3c2=O)c1 | 3856 | 4.3 | 7.4 | 9.6 | 36.2 | 5.3 | -35.3
Cc1ccc(NC(=O)CCNS(=O)(=O)c2cccc3nsnc23)cc1 | 9037 | 16.5 | 2.0 | 0.6 | 10.7 | 7.7 | -19.4
OC1CCCCC1Sc1nc2ccccc2s1 (stereo unspecified) | 8323 | -3.9 | 7.8 | 9.1 | 5.1 | 5.4 | -36.8
NC1=NC(=O)/C(=C\c2ccc(-c3ccc(Cl)cc3)o2)S1 | 3209 | -3.8 | / | / | / | / | -10.1
[N-]=[N+]=NC[C@H](Cc1ccccc1)N1CC[C@@H](NC(=O)OCc2ccccc2)CCC1=O | 2995 | -7.2 | / | / | / | / | 7.0
COc1ccc(S(=O)(=O)NC(CC(=O)N2CCC3(CC2)OCCO3)c2ccco2)cc1 (stereo unspecified) | 4771 | -4.0 | / | / | -1.0 | 2.6 | -23.3
COc1ccc(-c2nc(N/N=C(\C)c3ccc(O)cc3)c3ccccc3n2)cc1 | 4280 | -14.0 | / | / | / | / | -12.6
O=C(CCC(=O)N1CCN(S(=O)(=O)c2ccc(Cl)cc2)CC1)Nc1ccc(Cl)cc1Cl | 2546 | -7.1 | 2.7 | 2.9 | -10.0 | 2.4 | -8.2
Cn1cc(CNC(=O)/C=C/c2ccc(Cl)cc2)cn1 | 9819 | -4.6 | 2.6 | -2.1 | 5.5 | -0.1 | -9.2
COc1ccc(/C=N/Nc2nonc2N)cc1 | 9259 | 3.9 | / | / | / | / | -39.1
CCCN(C(=O)c1ccc(S(=O)(=O)N2CCCC2)cc1)C1CCS(=O)(=O)C1 (stereo unspecified) | 6178 | / | 0.0 | -0.8 | 5.5 | 3.1 | -24.6
COc1ccccc1NS(=O)(=O)c1ccc(C)c(C(=O)NC2=NCCS2)c1 | ? | / | 4.0 | 9.5 | -3.1 | 0.5 | -2.3
Cc1ccc(SCC(=O)NCc2ccccc2)cc1 | 3356 | -0.6 | 2.4 | 0.0 | 10.5 | 3.2 | -5.6
